Screens: PubChem, several laboratories
ALR inh: human ALR oxidase inhibition via reduced H2O2 | 290,000 compounds, 3.8% hits | purified ALR, DTT oxidation, H2O2 HRP-luminol luminescence | inhibition, % (test concentration not listed) | P55789;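 active means mean and each replicate at 75% or more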;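 further: stock transfer was 7.5 nL into about 7.5 µL; 0% = neutral wells and 100% = wells with inactivated enzyme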
Target sequence (P55789 whole entry, looked up): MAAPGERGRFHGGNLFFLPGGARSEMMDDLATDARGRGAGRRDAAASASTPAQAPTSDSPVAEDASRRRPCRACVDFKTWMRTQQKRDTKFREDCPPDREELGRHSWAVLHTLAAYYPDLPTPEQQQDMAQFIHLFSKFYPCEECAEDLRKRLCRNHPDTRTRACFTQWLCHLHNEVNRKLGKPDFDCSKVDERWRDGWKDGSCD
Ecoli rRNA inh: inhibits bacterial ribosomal RNA function over humanized ribosomes; E. coli WT GFP vs humanized-ribosome RFP mutants, fluorescence, 24 h; stronger effect = lower value; DMSO median 0, no signal -100; GFP signal change (wild-type ribosome), % (concentration not given with the values); 350,000 compounds, 1.6% hits;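 active means significant combined selectivity score with lowered wild-type GFP, culture density cut under 30%, mutant RFP and density less affected; inactive means any of these conditions unmet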; further: one replicate is shown; some compounds called inactive have numbers as strong as hits
LANA-H2B inh: blocks KSHV LANA binding to histone H2A/H2B; inhibition, % (no concentration beside the values); cell-free LANA-H2A/H2B peptide, fluorescence polarization; AID 2629; 320,000 compounds, 0.6% hits; Q9QR71; in the data active means inhibition mostly above about 10%, no sharp cut-off; inactive means mostly below about 6.7%;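 further: stock transfer was 7.5 nL into about 10 µL; 0% = median of vehicle wells and 100% = median of positive control wells; one replicate is shown; the record names a cut of 25% in any replicate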
Calb FLC: C. albicans growth modulation with fluconazole. growth inhibition, % (test concentration not listed). 300,000 compounds, 0.57% hits. C. albicans CaCi-2 (fluconazole-resistant clinical isolate) + fluconazole, Alamar Blue growth, 48 h;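 active means most replicates above 75%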;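 further: all wells also contain fluconazole at 8 µg/ml as a sub-toxic cotreatment; 0% = median of DMSO wells and 100% = median of geldanamycin control wells; wells of about 8 µL received 7.5 nL stock; the first replicate is given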
Bfl-1 A1 inh: inhibitors of the anti-apoptotic protein A1, read as caspase activation; MEF A1-2A-BIM cells, Caspase-Glo 3/7 luminescence, 3 h; percent of clofoctol response, vehicle zero; caspase activation, % (no concentration beside the values); 330,000 compounds, 0.066% hits;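 active means over half of replicate activation scores above 10%, or exactly half above 10 with the replicate mean above 10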;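 further: wells of about 30 µL received 50 nL stock; many hits fall short of the cut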
T cruzi repl: blocks replication of Trypanosoma cruzi; 300,000 compounds, 1.4% hits; inhibition, % (no concentration beside the values); AID 1885; T. cruzi beta-gal in NIH3T3, luminescence, 90 h;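 active means mean inhibition across valid replicates above about 55%, limit read from the data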;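 further: signal also drops with host cell toxicity which is not excluded here; 0% = plate median of DMSO wells and 100% = zero luminescence signal; higher percent means less beta-gal luminescence so fewer parasites; stock transfer was 50 nL into about 50 µL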
Beta apoptosis: blocks beta cell apoptosis; protection from apoptosis, % (concentration not given with the values); INS-1E cytokine-induced death, ATP luminescence, 48 h; percent of positive-control rescue, neutral wells zero; AID 435005; 300,000 compounds, 0.8% hits;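 active means all replicates at 75% or more, or half of them and the mean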;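 further: 0% = cytokine-treated negative control wells and 100% = positive control rescue; higher means more ATP so stronger rescue from cytokine killing; wells of about 40 µL received 100 nL stock; the first replicate is given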
B2AR ag: agonists of human beta-2 adrenergic receptor inducing internalization; AID 504454; Am2.2-beta2AR cells, FAP receptor internalization, flow cytometry; reference of the scale not given here; response, % (test concentration not listed); P07550; 340,000 compounds, 0.43% hits;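 active means response above a set limit, near 3 SD of response in nonfluorescent compounds, cut at about 42% in these data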;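 further: stock transfer was 100 nL into about 11 µL; a reference agonist was the positive control; negative values mostly stem from fluorescent compounds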
Target sequence (P07550 whole entry, looked up): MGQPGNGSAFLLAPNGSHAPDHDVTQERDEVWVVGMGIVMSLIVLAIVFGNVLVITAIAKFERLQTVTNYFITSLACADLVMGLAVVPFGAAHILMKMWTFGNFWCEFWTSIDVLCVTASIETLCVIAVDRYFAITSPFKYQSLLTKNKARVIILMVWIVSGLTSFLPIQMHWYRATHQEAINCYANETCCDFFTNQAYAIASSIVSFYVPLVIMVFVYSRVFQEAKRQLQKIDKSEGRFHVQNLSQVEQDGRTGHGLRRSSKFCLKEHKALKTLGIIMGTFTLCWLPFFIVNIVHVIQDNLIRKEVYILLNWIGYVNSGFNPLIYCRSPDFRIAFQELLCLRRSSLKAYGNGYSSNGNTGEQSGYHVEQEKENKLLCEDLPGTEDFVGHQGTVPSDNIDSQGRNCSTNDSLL
Ecoli rRNA inh OD600: second read-out of Ecoli rRNA inh, no call of its own (marks repeat the call); OD600 change, %; measured here: OD600 growth;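 optical density of the mix in the first replicate; 0 = DMSO median and -100 = no signal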
Ecoli rRNA inh RFP: further read-out of Ecoli rRNA inh, marked with its call; RFP signal change, %; measured here: RFP humanized mutant strains;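 first replicate; 0 = DMSO median and -100 = no signal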
Starred values were filed as active, the others as inactive; · = not tested or not shown.

smiles,B2AR ag,Beta apoptosis,Calb FLC,T cruzi repl,Ecoli rRNA inh RFP,Bfl-1 A1 inh,LANA-H2B inh,Ecoli rRNA inh OD600,Ecoli rRNA inh,ALR inh
COc1ccc(OC)c(NC(=O)c2cccc(NC(=O)c3ccccc3)c2)c1,9,·,12,-2,-0.6,-4.1,-0.7,-25,-23,·
COc1ccc(N2CCN(C(c3ccco3)c3sc4nc(C)nn4c3O)CC2)cc1 (stereo unspecified),-2,1,-34,-4,28,0.4,10,-20,-16,55
CN(C)S(=O)(=O)c1cccc(NC(=S)NNC(=O)c2cc3ccccc3cc2O)c1,13,3,·,·,·,-0.1,0.2,·,·,45
CC(C)C[C@H](N)c1cn([C@@H](Cc2cc3ccccc3[nH]2)C(=O)N2CCNCC2)nn1,-5,0,1,-18,·,0.5,-0.2,·,·,-77
COc1ccc(C2C(C(=O)Nc3cc(OC)c(OC)c(OC)c3)c3ccccc3C(=O)N2C)cc1 (stereo unspecified),22,·,-10,-4,-3.2,-0.3,-1.8,6,4,-2
O=C(N/N=C\C=C\c1ccco1)C1COc2ccccc2O1 (stereo unspecified),0,2,5,-10,12,1.4,-7.6,14,10,-1
CC(C)NC(=O)C1(O)c2ccccc2NC(=O)N1c1ccc(Cl)c(Cl)c1 (stereo unspecified),-1,-12,3,2,·,1.2,-0.9,·,·,-14
COc1cccc(N(CC(=O)Nc2ccccc2C)S(C)(=O)=O)c1,4,-7,-3,-4,·,-0.5,-8.2,·,·,-13
O=C1C=C(NC2CC2)C2(CCCCC2)O1,-7,1,-1,-4,·,-0.2,0.4,·,·,-15
CCN(CC)C(=O)CCCSc1nnc(Nc2ccccc2F)s1,2,-3,7,13,-5.3,-0.7,4.1,-28,-24,-8
CCCCN(C(=O)C1CC(=O)N(c2ccc3c(c2)OCCO3)C1)c1c(N)n(CCC)c(=O)[nH]c1=O (stereo unspecified),0,0,·,·,·,-1.0,1.7,·,·,·
COc1ccc(OC)c(NC(=O)Cn2c(CCC(=O)O)ccc2-c2ccc(C)cc2)c1,-1,-4,35,-7,-2.4,0.1,-1.7,-1,-1,10
O=C(OCn1nnc2ccccc2c1=O)c1cccc(S(=O)(=O)N2CCOCC2)c1,6,-7,·,·,0.2,-0.2,-0.3,18,9,·
COc1cc(/C=N/NC(=O)CNC(=O)c2ccncc2)ccc1O,2,-2,-6,-13,-1.4,-0.7,2.0,19,9,99*
Cc1nnc(NC(=O)CSc2nnc(-c3ccco3)o2)s1,-2,5,6,11,·,0.1,-1.2,·,·,-4
COc1cc(/C=C2\SC(=Nc3ccccc3OC)NC2=O)ccc1O,9,23,60,-13,-10,0.6,-6.1,-38,-29,99*
CN(CC(=O)Nc1cccc(F)c1)C(=O)c1ccncc1,1,7,-3,14,-1.9,0.5,8.8,9,6,-6
CCOC(=O)N1CCN(Cc2cc(=O)oc3ccc4ccccc4c23)CC1,7,1,-29,14,·,-0.4,7.5,·,·,-18
Cc1ccc(C(=O)N2C(=O)c3cccc(N)c3C2=O)o1,3,-12,7,-15,-2.7,-1.0,20*,8,11,·
COc1ccccc1C(=O)Nc1ccnn1C1CCN(CCCc2ccccc2)CC1,-6,3,-9,21,1.8,0.0,-0.1,11,8,-43
COc1ccc(-c2cc(C(F)(F)F)nc(S(C)(=O)=O)n2)cc1OC,9,18,47,60*,·,1.2,-1.9,·,·,70
Cc1ccccc1CSc1nnc(C)c(=O)n1N,-3,-3,1,0,-5.2,0.6,-1.0,6,10,-8
Cc1c(Cl)c([N+](=O)[O-])nn1CCCC(=O)Nc1sc2c(c1C#N)CCC2,4,8,15,47,-8.6,0.7,-0.7,-26,-27,6
CC(C)N(C(=O)CSc1nnc(CSc2ncccn2)n1C)C(C)C,7,-4,-17,-4,-1.3,-0.2,7.4,14,13,-2
CCSc1nc2c(c(=O)[nH]c(=O)n2C)n1C,6,-1,0,-5,·,1.7,5.2,·,·,-7
CN(C)c1ccc(C(CC(=O)O)NC(=O)c2ccc(Cl)cc2)cc1 (stereo unspecified),-10,-2,16,-21,·,1.1,-4.3,·,·,28
Cc1ccc(C(=O)NC(=S)N2CCN(C(=O)OC(C)(C)C)CC2)cc1Br,8,-2,3,3,-6.8,-0.2,4.8,-3,1,15
COc1ccc(C)cc1N(CC(=O)O)S(=O)(=O)c1ccc(C)cc1,-11,-2,-7,-4,·,0.4,-5.0,·,·,19
CC(C)n1c(SCC(=O)Nc2ccccc2N2CCOCC2)nc2c1c(=O)n(C)c(=O)n2C,0,-2,3,-38,·,0.1,-2.5,·,·,-4
COCCN1C(=O)N(C)[C@@H](c2ccccc2)C(C(C)=O)=C1C,-8,-2,-4,-4,-9.6,0.9,0.4,9,3,-6
Cc1ccc(C(=O)Nc2cc(Cl)ccc2Oc2ccccc2)cc1[N+](=O)[O-],-5,8,-23,45,·,0.4,0.3,·,·,3
COc1ccc(C(=O)NC2CCN(S(=O)(=O)c3ccc(C)cc3)CC2)cc1,2,-1,-2,9,0.4,0.0,1.7,9,9,-16
COc1ccc(/C=C/C(=O)NCc2ccc(F)cc2)cc1S(=O)(=O)N1CCOCC1,-4,2,4,3,-9.9,1.5,2.1,-7,-5,12
O=C(CSCc1ccccc1Cl)NNC(=O)c1ccccc1,1,-5,22,-5,·,-1.6,1.0,·,·,100*
CCCCn1nnnc1SCC(=O)NCc1ccccc1,0,1,-11,1,·,-0.2,5.2,·,·,-3
COc1ccccc1CNS(=O)(=O)c1cc(CN2C(=O)c3cccnc3C2=O)ccc1OC,-6,-1,1,9,0.4,-1.0,-3.8,6,5,-2
COc1ccc2oc(=O)c(-c3nnc(NCc4ccco4)s3)cc2c1,5,-25,-3,18,·,-0.7,1.4,·,·,3
CC(OC(=O)c1ccc([N+](=O)[O-])cc1)C(=O)NCC1CCCCC1 (stereo unspecified),-6,-2,·,·,·,-0.5,3.4,·,·,-1
O=C(NCc1ccc(Cl)cc1)C1CC(O)CN1S(=O)(=O)c1ccc(Cl)cc1 (stereo unspecified),-5,3,-4,3,1.6,1.3,2.6,-9,-5,0
CNC(C)C#Cc1c(-c2cc(OC)c(OC)c(OC)c2)noc1C (stereo unspecified),1,-11,11,19,-7.8,-1.2,1.0,0,-8,55
COc1cccc(NC(=O)CSc2nnc(NC(=O)C3CCC3)s2)c1,1,-4,7,-14,-1.2,1.4,-0.7,0,-1,-7
CCC(CO)Oc1cc(NCc2cccc(F)c2)c2ncn(C(C)C)c2c1 (stereo unspecified),-8,0,·,·,3.9,-1.3,-3.4,-2,2,46
Cc1c(C(=O)N2CCC(n3nccc3NC(=O)C3CC3)CC2)[nH]c2ccc(Cl)cc12,-10,0,-1,12,0.6,1.6,-1.2,-19,-11,-3
COc1ccccc1N1CCN(C(=O)c2cc(-c3ccccc3O)on2)CC1,2,2,4,-6,4.4,0.2,-0.8,-5,0,·
CCN(CC)S(=O)(=O)c1ccc(NN=c2c(=O)c3ccccc3c2=O)cc1,3,3,-14,-14,-2.9,-0.1,-3.1,6,1,0
CS(=O)(=O)N(CC(=O)N1CCN(c2ccccc2)CC1)c1cc(C(F)(F)F)ccc1Cl,25,0,12,14,24,-0.4,1.8,-1,-1,21
O=C(O)C(Cc1ccccc1)N=Cc1c(O)c2ccccc2oc1=O (stereo unspecified),4,·,1,-7,2.2,·,·,-7,-2,·
O=C(CCc1nc2ccccc2s1)OCc1ccccc1F,2,6,-7,-10,-3.8,0.0,2.8,9,8,-2
CSc1nc(Oc2ccc(=O)n(C)n2)nc(N(C)C)n1,-7,-3,-3,-9,·,0.0,-3.2,·,·,-1
CC(=O)Oc1ccc(-c2cccc(C(=O)OCC(=O)Nc3ccccc3Oc3ccccc3)c2)cc1,-4,0,-5,-1,·,0.8,3.0,·,·,-3
CCOC(=O)CNC(=O)CN1C(=O)CCSc2ccccc21,0,0,2,-16,-3.1,0.2,5.2,9,10,-5
CNC(=S)N1N=C(c2ccc(C)cc2)CC1c1ccc(OC)c(OC)c1 (stereo unspecified),5,-4,-6,4,·,0.6,0.1,·,·,-4
Cc1ccccc1NCCC(=O)Nc1ccc(F)cc1,-5,3,-11,-8,0.2,-0.3,1.4,14,6,99*
CC(C)CCNC(=O)C1CC2Cn3c(nc4cc(Cl)c(Cl)cc43)C2N1C (stereo unspecified),-4,4,13,6,-1.8,0.4,-1.6,-19,-13,-6
Cc1cccc2cc(CNCC3CCCO3)c(Cl)nc12 (stereo unspecified),3,-1,99*,-10,0.4,1.0,-3.1,2,-3,0
COc1ccc(C(=O)COC(=O)CNC(=O)c2cccs2)cc1Br,10,-7,0,-9,1.9,0.2,-5.6,3,0,-2
O=C(Nc1cc(S(=O)(=O)N2CCOCC2)ccc1Cl)c1cc([N+](=O)[O-])ccc1Cl,-4,5,·,·,·,1.6,2.6,·,·,3
C/C(=N/OCO/N=C(/C)c1ccc(F)cc1)c1ccc(F)cc1,0,-8,-23,8,-7.5,0.0,1.5,3,1,-3
C[C@H](NS(=O)(=O)c1ccc(F)cc1)C(=O)OCC(=O)c1c(N)n(C)c(=O)n(C)c1=O,-5,-9,·,·,-0.5,0.7,-9.9,10,1,4
Clc1cccc(N2CCN(Cc3nc(-c4ccccc4)no3)CC2)c1,-6,-1,-18,-22,-2.4,-0.2,-2.2,-26,-18,-5

Next part.
smiles,B2AR ag,Beta apoptosis,Calb FLC,T cruzi repl,Ecoli rRNA inh RFP,Bfl-1 A1 inh,LANA-H2B inh,Ecoli rRNA inh OD600,Ecoli rRNA inh,ALR inh
COc1ccc(Cn2c(C)c(C)c(C#N)c2NC(=O)Nc2ccc(Cl)cc2)cc1,7,2,-12,-2,·,-0.3,1.4,·,·,-5
CCCOC(=O)Nc1ccc(N2CCCCC2)cc1,8,·,-16,3,·,-1.0,-3.1,·,·,97*
COc1ccc(-c2cn(Cc3ccc4ccccc4c3)nn2)cc1,1,-8,-13,3,13,-1.7,-9.1,23,13,-8
Cc1ccc(CC(=O)Nc2cccc(C#N)c2)cc1,2,-8,-29,-28,·,0.2,2.3,·,·,-13
Cc1ccccc1OCc1nc2c3cnn(C)c3ncn2n1,-3,1,1,-14,·,-1.7,3.5,·,·,53
O=C(CSc1nc(-c2ccco2)cc(C(F)(F)F)n1)N1CCSCC1,-8,-11,-1,-2,·,-1.0,13,·,·,-3
C=C1CCC(N(O)c2cc(C)on2)C(=C)CCC2C1CC2(C)C (stereo unspecified),2,-4,·,·,1.7*,-0.3,-2.3,-3.7*,-20*,4
O=C(Nc1sc2c(c1C(=O)O)CCCC2)c1ccc(F)cc1,1,1,65,-21,-7.2,-8.1,4.6,-48,-38,56
CC(=O)Nc1ccc(C(=O)N/N=C/C2CC3C=CC2C3)cc1 (stereo unspecified),3,-6,25,-9,-2.2,-0.2,4.7,1,10,-9

The list is partial. The share of hits here may be higher or lower than overall.
